Compound activity (PubChem BioAssay)
Beta2AR agonist: beta2AR agonists driving receptor internalization, primary screen, cell-based, FAP fluorogen, flow cytometry. Am2.2-beta2AR cells; reference of the scale not given here. response, % (test concentration not listed). AID 504454, 2011. 340,000 tested, 0.43% active;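 active = response above a set limit, near 3 SD of response in nonfluorescent compounds, cut at about 42% in these data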;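 note: stock transfer was 100 nL into about 11 µL; a reference agonist was the positive control; negative values mostly stem from fluorescent compounds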
Target sequence (P07550 whole entry, looked up): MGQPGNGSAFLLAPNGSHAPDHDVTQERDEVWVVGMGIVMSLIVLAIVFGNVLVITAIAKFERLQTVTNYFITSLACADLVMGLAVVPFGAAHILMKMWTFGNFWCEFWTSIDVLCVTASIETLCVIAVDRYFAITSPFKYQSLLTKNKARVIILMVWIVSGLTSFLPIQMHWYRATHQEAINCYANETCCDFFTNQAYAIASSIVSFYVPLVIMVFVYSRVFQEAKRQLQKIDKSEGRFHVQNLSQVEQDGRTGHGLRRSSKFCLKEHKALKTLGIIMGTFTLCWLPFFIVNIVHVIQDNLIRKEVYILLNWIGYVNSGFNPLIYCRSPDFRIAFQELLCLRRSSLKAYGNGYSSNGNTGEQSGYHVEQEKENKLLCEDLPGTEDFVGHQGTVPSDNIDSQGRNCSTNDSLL
Vif TR-FRET: inhibitors of Vif binding to APOBEC3G peptide, primary screen, biochemical, TR-FRET, GST-Vif 1-94, biotin-A3G peptide, dose response retest (AID 1117319) | TR-FRET GST-Vif / biotin-A3G peptide binding; higher % means a stronger effect; test concentration not given here; strong numbers were not always called active | inhibition, %, or IC50 in µM where a hit was titrated | Virion infectivity factor (Human immunodeficiency virus type 1 group M subtype B (isolate … | 260,000 tested, 0.57% active;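 active = above the screen mean plus three standard deviations and confirmed in dose response; inconclusive = results disagree or hit not tested in dose response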;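 note: Vif residues 1-94 fused to GST binding biotinylated APOBEC3G peptide 110-148; 0% = full assay without inhibitor and 100% = GST in place of GST-Vif; retest series ran down from 100 µM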
LANA-H2A inh: blockers of LANA interaction with H2A/H2B – biochemical, FP readout, HTS, primary screen | cell-free LANA-H2A/H2B peptide, fluorescence polarization | inhibition, % (no concentration beside the values) | 320,000 tested, 0.6% active; in the data active = inhibition mostly above about 10%, no sharp cut-off; inactive = mostly below about 6.7%;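 note: stock transfer was 7.5 nL into about 10 µL; 0% = median of vehicle wells and 100% = median of positive control wells; one replicate is shown; the record names a cut of 25% in any replicate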
ALR H2O2 inh: inhibitors of human ALR sulfhydryl oxidase, primary screen, biochemical, H2O2 detection, HRP-luminol luminescence, single point; FAD-linked sulfhydryl oxidase ALR (Homo sapiens), P55789; purified ALR, DTT oxidation; inhibition, % (test concentration not listed); 290,000 tested, 3.8% active;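 active = mean and each replicate at 75% or more; inconclusive = only one of the two met; inactive = neither met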;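 note: stock transfer was 7.5 nL into about 7.5 µL; 0% = neutral wells and 100% = wells with inactivated enzyme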
Target sequence (P55789 whole entry, looked up): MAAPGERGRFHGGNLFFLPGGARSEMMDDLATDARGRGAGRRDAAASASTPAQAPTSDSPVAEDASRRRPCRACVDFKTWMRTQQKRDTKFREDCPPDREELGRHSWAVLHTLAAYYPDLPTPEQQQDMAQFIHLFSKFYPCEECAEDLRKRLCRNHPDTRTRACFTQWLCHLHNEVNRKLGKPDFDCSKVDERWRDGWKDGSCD
Calb FLC: C. albicans growth inhibition with fluconazole, primary screen, CaCi-2 strain, Alamar Blue fluorescence | growth inhibition, % (test concentration not listed) | C. albicans CaCi-2 (fluconazole-resistant clinical isolate) + fluconazole, 48 h | 300,000 tested, 0.57% active | AID 1979, 2009;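 active = most replicates above 75%; inconclusive = exactly half above 75%; inactive = most below 75%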;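 note: all wells also contain fluconazole at 8 µg/ml as a sub-toxic cotreatment; 0% = median of DMSO wells and 100% = median of geldanamycin control wells; wells of about 8 µL received 7.5 nL stock; the first replicate is given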
HNF4A DNA FP: change in binding of human HNF4A to DNA, primary screen, biochemical, fluorescence polarization, FITC-DNA; Hepatocyte nuclear factor 4-alpha (Homo sapiens), P41235; 1 h; activity change, % at 10 µM; 360,000 tested, 0.3% active; in the data active = activity change above about 30%, passing the limit was not always enough;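 note: controls were the assay level and a saturating level of protein; the project sought stronger binding though the title names inhibitors; some compounds called inactive have numbers as strong as hits; positive values seem to mean higher polarization but the record does not say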
Target sequence (P41235 whole entry, looked up): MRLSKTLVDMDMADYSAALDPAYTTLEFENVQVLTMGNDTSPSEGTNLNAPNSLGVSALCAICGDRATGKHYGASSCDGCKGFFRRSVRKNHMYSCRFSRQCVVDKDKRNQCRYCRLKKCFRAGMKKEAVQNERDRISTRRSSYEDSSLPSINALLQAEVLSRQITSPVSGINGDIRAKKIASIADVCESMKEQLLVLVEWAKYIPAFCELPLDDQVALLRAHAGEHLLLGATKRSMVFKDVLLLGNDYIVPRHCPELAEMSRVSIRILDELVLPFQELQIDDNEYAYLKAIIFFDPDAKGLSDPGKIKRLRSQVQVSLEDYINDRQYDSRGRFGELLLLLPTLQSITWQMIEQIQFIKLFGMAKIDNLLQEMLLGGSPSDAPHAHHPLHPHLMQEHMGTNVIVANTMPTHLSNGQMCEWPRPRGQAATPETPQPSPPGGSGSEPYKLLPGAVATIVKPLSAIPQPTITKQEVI
RanGTP-Imp inh: inhibitors of RanGTP-importin-beta interaction, primary screen, biochemical, FRET, CFP-Ran, YFP-importin-beta, homogeneous; Ran GTPase (GTP-bound) - importin-beta complex; cell-free CFP-Ran/YFP-importin-beta FRET ratio; inhibition, % (test concentration not listed); 300,000 tested, 1.1% active; AID 2216, 2009;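 active = most replicates above 15%; inconclusive = exactly half above 15%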;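 note: 0% = DMSO wells and 100% = Ran loaded with GDP instead of GTP; wells of about 40 µL received 100 nL stock; the first replicate is given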
An asterisk follows results filed as active; i = inactive; ? = inconclusive; . = not tested or not shown.

1. O=C(O)C1CC(=O)N(CCOc2ccccc2)C1 (configuration not stated)
2. CCCC(C)C(=O)Nc1nc(C)c(-c2csc(Nc3cc(Cl)ccc3C)n2)s1 (configuration not stated)
3. O=C1NC(=S)N/C1=C/c1cccc2ccccc12
4. Cc1ccc(C(=O)Nc2sc3c(c2C(=O)NCc2ccco2)CCCC3)cc1
5. Cc1ccc2nc3c(cc(S(=O)(=O)c4ccccc4)c(=N)n3Cc3ccco3)c(=O)n2c1
6. CCN1C(=O)c2ccc(C(=O)Nc3ccc(O)cc3C)cc2C1=O
7. Cc1onc(-c2ccccc2)c1C(=O)Nc1nnc(N(C)Cc2ccccc2)s1
8. CC(C)(C)C(=O)Nc1cc(S(=O)(=O)Nc2ccc(Cl)cc2)ccc1Cl
9. COc1ccc(OC)c(/C=c2\sc3nc(-c4cccs4)nn3c2=O)c1
10. COc1ccc(-c2nc3c(s2)CCc2onc(-c4ccc(Br)cc4)c2-3)cc1
Compound,1,2,3,4,5,6,7,8,9,10
Beta2AR agonist,5,7,14,1,3,-9,-12,-4,6,-1
Vif TR-FRET,7%,20%,8%,-6%,7%,-7%,6%,-2%,10%,.
LANA-H2A inh,2.6,-9.5,1.5,-0.1,1.4,-8.5,-0.4,-1.0,-2.2,-3.5
ALR H2O2 inh,0,-10,-7,1,-23,99*,-51,-14,-2,-11
Calb FLC,-3,0,34,.,3,6,6,9,-4,-1
HNF4A DNA FP,1.1,9.4,-2.4,-0.7,-11,2.4,2.0,2.8,1.1,-1.5
RanGTP-Imp inh,-1.1,?,0.1,2.9,?,0.3,1.1,0.0,-4.4,-0.3

11. CCOc1ccc(NC(=S)N2CCCC2)cc1
12. Cc1ccc([C@H]2C(C(=O)O)=CC[C@@H](c3cccc(Cl)c3)N2S(=O)(=O)c2ccc(C)cc2)cc1
13. O=C(COc1c(F)c(F)c(C(F)(F)F)c(F)c1F)Nc1ccc(N2CCOCC2)c(Cl)c1
14. COCCSc1nnc(NC(=O)c2ccc(OC)c([N+](=O)[O-])c2)s1
15. Cc1ccccc1N(CC(=O)NCCc1ccccc1)C(=O)c1ccc(N2CCCC2)nc1
16. COc1ccc(CCNc2ncnc3cc(OC)c(OC)cc23)cc1OC
17. Fc1cccc(-n2cc(-c3ccccc3)c3c(=S)nc[nH]c32)c1
18. O=S(=O)(Nc1ccccc1N1CCOCC1)c1ccc(Cl)cc1
19. Cc1cc(C(=O)COC(=O)c2ccccc2NCCO)c(C)n1CC1CCCO1 (configuration not stated)
20. CN1CCN(C(=O)/C(=C\c2cccs2)NC(=O)c2ccco2)CC1
Compound,11,12,13,14,15,16,17,18,19,20
Beta2AR agonist,-2,3,5,3,-15,10,2,1,-3,4
Vif TR-FRET,.,37%,16%,-1%,-5%,-3%,.,0%,4%,21%
LANA-H2A inh,-2.2,.,0.4,4.4,-1.3,.,1.1,1.1,-1.0,2.6
ALR H2O2 inh,-22,.,-3,-5,-4,.,-3,9,-2,-5
Calb FLC,-2,.,19,-13,-13,-13,101*,.,-5,-6
HNF4A DNA FP,3.3,-3.3,1.6,-1.3,-1.1,1.8,6.7,2.9,3.0,-2.1
RanGTP-Imp inh,.,.,1.1,1.1,-0.9,0.9,0.1,.,2.5,4.6

From compound 8 to 20, copied from above:
8. CC(C)(C)C(=O)Nc1cc(S(=O)(=O)Nc2ccc(Cl)cc2)ccc1Cl
9. COc1ccc(OC)c(/C=c2\sc3nc(-c4cccs4)nn3c2=O)c1
10. COc1ccc(-c2nc3c(s2)CCc2onc(-c4ccc(Br)cc4)c2-3)cc1
11. CCOc1ccc(NC(=S)N2CCCC2)cc1
12. Cc1ccc([C@H]2C(C(=O)O)=CC[C@@H](c3cccc(Cl)c3)N2S(=O)(=O)c2ccc(C)cc2)cc1
13. O=C(COc1c(F)c(F)c(C(F)(F)F)c(F)c1F)Nc1ccc(N2CCOCC2)c(Cl)c1
14. COCCSc1nnc(NC(=O)c2ccc(OC)c([N+](=O)[O-])c2)s1
15. Cc1ccccc1N(CC(=O)NCCc1ccccc1)C(=O)c1ccc(N2CCCC2)nc1
16. COc1ccc(CCNc2ncnc3cc(OC)c(OC)cc23)cc1OC
17. Fc1cccc(-n2cc(-c3ccccc3)c3c(=S)nc[nH]c32)c1
18. O=S(=O)(Nc1ccccc1N1CCOCC1)c1ccc(Cl)cc1
19. Cc1cc(C(=O)COC(=O)c2ccccc2NCCO)c(C)n1CC1CCCO1 (configuration not stated)
Compound,8,9,10,11,12,13,14,15,16,17,18,19
Beta2AR agonist,-4,6,-1,-2,3,5,3,-15,10,2,1,-3
Vif TR-FRET,-2%,10%,.,.,37%,16%,-1%,-5%,-3%,.,0%,4%
LANA-H2A inh,-1.0,-2.2,-3.5,-2.2,.,0.4,4.4,-1.3,.,1.1,1.1,-1.0
ALR H2O2 inh,-14,-2,-11,-22,.,-3,-5,-4,.,-3,9,-2
Calb FLC,9,-4,-1,-2,.,19,-13,-13,-13,101*,.,-5
HNF4A DNA FP,2.8,1.1,-1.5,3.3,-3.3,1.6,-1.3,-1.1,1.8,6.7,2.9,3.0
RanGTP-Imp inh,0.0,-4.4,-0.3,.,.,1.1,1.1,-0.9,0.9,0.1,.,2.5

20. CN1CCN(C(=O)/C(=C\c2cccs2)NC(=O)c2ccco2)CC1
Compound,20
Beta2AR agonist,4
Vif TR-FRET,21%
LANA-H2A inh,2.6
ALR H2O2 inh,-5
Calb FLC,-6
HNF4A DNA FP,-2.1
RanGTP-Imp inh,4.6

Going on with the list.
21. CC(=O)c1sc(=S)n(-c2ccccc2)c1C
22. CCn1c(COc2ccc(C)cc2)nc2ccccc21
23. Cc1c(C(=O)O)oc2c3c(ccc12)OCCO3
24. Cc1ccc(C2(c3ccccc3)NC(=O)N(CC(=O)N(C)C3CCS(=O)(=O)C3)C2=O)cc1C (configuration not stated)
25. O=C1OC[C@H]2CCCN2C(=O)[C@@H](CC(=O)N(CCO)Cc2ccccc2)C/C=C\C[C@H]1Cc1ccc(F)cc1
26. Cc1cnn(-c2nc(-c3ccccc3)cc(-c3ccccc3)n2)c1
27. COc1ccc(-n2c(=S)[nH]c3cc(C(=O)Nc4cc(C(N)=O)ccc4OC)ccc3c2=O)c(OC)c1
28. CC(C)[C@@H](C(=O)NCc1ccco1)N1C(=O)N2CCc3c([nH]c4ccccc34)[C@@]2(C)C1=O
29. COc1ccc(S(=O)(=O)N2CCc3ccccc32)cc1C(=O)O
30. O=S(=O)(c1ccc(S(=O)(=O)N2CCN(C3CCCCC3)CC2)cc1)N1CCCCCC1
Compound,21,22,23,24,25,26,27,28,29,30
Beta2AR agonist,-1,-5,-3,4,-2,42*,6,-1,-1,9
Vif TR-FRET,.,.,-4%,2%,-2%,.,.,.,.,-9%
LANA-H2A inh,-0.9,-3.3,-1.8,16*,i,.,-5.1,1.5,4.4,.
ALR H2O2 inh,-2,57,-9,-3,-4,.,14,.,2,.
Calb FLC,-1,-2,?,.,.,-15,-7,-7,1,.
HNF4A DNA FP,-4.0,-0.8,0.2,-4.5,-0.6,3.7,0.6,1.5,0.2,2.0
RanGTP-Imp inh,-2.0,3.6,-0.2,.,.,-2.2,0.4,?,-2.2,.

31. O=C(COC(=O)c1ccco1)NC12CC3CC(CC(C3)C1)C2
32. S=C1NCCN1CC1CCN(CCCC2CCCC2)CC1
33. Cn1cc(/C=N/Nc2ccccc2)c2ccccc21
34. O=C(c1cccnc1)N1C2CCC1CC(O)(c1ccc(F)cc1)C2 (configuration not stated)
35. CN(C)c1nc(Oc2ccc(N)cc2)nc(N(C)C)n1
36. COCCCn1c(=O)c2ccccc2n2c(=S)[nH]nc12
37. COc1ccc(OCC(=O)NC(=O)c2ccccc2)c([N+](=O)[O-])c1
38. N#CCC(=O)N/N=C/c1ccc(OS(=O)(=O)c2ccccc2)cc1
39. CCOc1ccc(NC(=O)c2ccccc2C(=O)c2ccccc2)cc1OCC
40. COc1cccc(CNC(=O)CSc2nc3c(oc4ccccc43)c(=O)n2CC2CCCO2)c1 (configuration not stated)
Compound,31,32,33,34,35,36,37,38,39,40
Beta2AR agonist,-3,3,2,2,77*,6,4,6,3,3
Vif TR-FRET,-9%,-7%,5%,0%,11%,-1%,-1%,-2%,.,-2%
LANA-H2A inh,-14,.,-2.1,-0.7,2.5,6.0,-6.8,12,3.3,3.9
ALR H2O2 inh,-2,.,-20,-2,.,?,-5,-11,.,-27
Calb FLC,.,.,101*,-2,8,14,.,-1,4,3
HNF4A DNA FP,0.0,2.5,0.3,-0.7,-0.1,-0.6,3.3,-0.1,4.5,-1.0
RanGTP-Imp inh,.,.,?,1.2,-5.9,0.1,.,-0.3,-0.6,-4.3

Next part:
Every second line gives: Beta2AR agonist | Vif TR-FRET | LANA-H2A inh | ALR H2O2 inh | Calb FLC | HNF4A DNA FP | RanGTP-Imp inh
41. COc1cc2c(cc1OC)CN(CCOc1ccc(Br)cc1)CC2
    -5 | 20% | -1.1 | -15 | -3 | -0.6 | 0.2
42. Cc1cc(C)c(NS(=O)(=O)c2cccc3cccnc23)c(C)c1
    5 | 12% | -1.0 | -6 | 73* | 6.2 | 0.9
43. Cc1cc(NC(=O)CCC(=O)N(Cc2ccco2)C(C)(C)C(=O)NC2CCCCC2)no1
    -4 | 13% | -0.7 | -2 | 32 | -1.2 | ?
44. CCCc1c(C)nn(-c2ncccc2[N+](=O)[O-])c1C
    8 | -3% | -8.9 | 15 | -11 | -2.9 | -5.5
45. Cc1ccc(S(=O)(=O)c2nc(-c3ccccc3F)oc2N2CC(C)OC(C)C2)cc1 (configuration not stated)
    -3 | 7% | 59* | -6 | 8 | 4.2 | 0.9
46. CN(C)c1cc[n+](CC(=O)Nc2ccc(OC(F)F)cc2)cc1
    -3 | . | -10 | 10 | 4 | 0.3 | -0.1
47. CCCn1cnc2cc(NCc3cccs3)ccc21
    -9 | 11% | 4.5 | . | -1 | -1.3 | 2.2
48. COCCCNC(=O)C(=O)N/N=C/c1ccc(OCC(=O)Nc2cccc(Cl)c2C)c(OC)c1
    -2 | 2% | -3.2 | -9 | . | 0.6 | .
49. c1ccc(-c2cc(-c3ccccc3)[nH]n2)cc1
    -8 | -5% | -5.7 | -15 | -35 | 0.6 | -2.0
50. CC(C)C(=O)Nc1ccc(C(=O)CN2C(=O)NC3(CCOc4ccccc43)C2=O)cc1 (configuration not stated)
    7 | . | -6.3 | . | . | 8.1 | .
51. COc1cc(S(=O)(=O)NCc2ccc(F)cc2)ccc1-n1cnnn1
    5 | . | -1.6 | 0 | 7 | 3.0 | -7.1
52. O=C(COc1ccccc1Br)NCCC1=CCCCC1
    -9 | -7% | -2.9 | -4 | . | 3.9 | .
53. COc1ccc(-c2oc3cccnc3c2-c2ccc(OC)nc2)cc1
    -13 | . | -1.8 | -4 | -9 | -3.1 | -3.9
54. Cc1ccccc1NC(=O)CSc1nc(N)c(C#N)cc1C#N
    -1 | -81% | -3.2 | -7 | 9 | -2.4 | -0.2
55. Nc1nnnn1/N=C/c1ccccc1OCc1ccc(Cl)cc1
    -1 | 7% | 0.7 | -2 | 2 | 3.4 | -7.7
56. COc1nc(C)nc2c1sc1nc3c(cc12)COC(C)(C)C3
    -3 | 8% | 1.6 | . | 5 | 0.2 | -4.5
57. Cc1cc(C)n2nc(S(=O)(=O)N(CC(C)C)CC(C)C)nc2n1
    -2 | -5% | 0.0 | . | 4 | 2.8 | 0.7
58. Cc1cccc(NC(=O)CSc2nc3[nH]ncc3c(=O)n2-c2ccccc2)c1
    . | 11% | 3.3 | 1 | 3 | . | -0.2
